Compound activity (PubChem BioAssay)
TAR Tat displ – HIV-1 TAR-Tat binding disruption. AID 1259389. HIV-1 TAR RNA, Tat peptide displacement FRET; stronger effect = higher value. z-score (test concentration not listed). 0.6% of 100,000 active;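 note: score is relative to mean and SD of negative controls; some compounds called inactive have numbers as strong as hits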
CDC25B CDK2 inh – human CDC25B-CDK2/CyclinA binding inhibition; HTRF CDC25B-CDK2/CyclinA binding, anti-His/anti-Flag; stronger effect = higher value; P30305+P24941; AID 1259370; 0.72% of 94,000 active; z-score (test concentration not listed);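 note: score is relative to mean and SD of negative controls; strong numbers were not always called active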
* = called active by the depositor; · = not tested or not shown.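 Rule for the calls: active = z-score from 3 up in half or more of its runs; inactive = the rest.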

cpd | structure | CDC25B CDK2 inh | TAR Tat displ
1 | Cc1cc2c(cc1C)NC(c1ccc(O)cc1)C1=C(CC(C)(C)CC1=O)N2 (centres undefined) | -1.9 | 0.44
2 | Fc1cccc(-c2nnc3ccc(SCc4ccccc4)nn23)c1 | -5 | ·
3 | CCOC(=O)Cn1c(C)cc2ccccc2c1=O | -0.9 | 2.8
4 | O=C(Cn1c(=O)c2cccnc2n(-c2ccccc2)c1=O)Nc1cccc(Br)c1 | · | 1.2
5 | Cn1c2ccccc2c2c(C(=O)N3CCN(c4ccc(F)cc4)CC3)cn(C3CCCC3)c(=O)c21 | -2.2 | ·
6 | Cc1c(C(=O)O)c2cc(NS(=O)(=O)N(C)C)ccc2n1S(=O)(=O)N(C)C | -2 | -0.83
7 | Cc1cccc(Nc2nc3ccc(C)cc3n3nnnc23)c1 | -0.56 | 1.5
8 | CCOC(=O)C1CCN(c2nc3c(S(=O)(=O)c4cc(C)ccc4C)nnn3c3ccsc23)CC1 | · | 0.28
9 | CS/C(NC1CCCCC1)=C(/C#N)S(=O)(=O)c1ccc(Cl)cc1 | -2.5 | ·
10 | CC(C)CC(NS(=O)(=O)c1ccc2c(c1)oc(=O)n2C)C(=O)N1CCc2ccccc2C1 (centres undefined) | -2 | 0.82
11 | CCOc1ccc(/C(O)=C2\C(=O)C(=O)N(CCN(C)C)C2c2ccc(N(C)C)cc2)cc1C (centres undefined) | -2.2 | -1.5
12 | CN1CCc2c(sc(-n3cccc3)c2CNC(=O)Nc2ccc(F)c(Cl)c2)C1 | · | -6.7
13 | O=C1c2cccnc2C(=O)N1Cc1ccc(S(=O)(=O)NC2CCCc3ccccc32)cc1 (centres undefined) | · | 0.81
14 | C=Cc1ccc(Cn2c(C)c(CNCc3ccccc3)c(C(=O)O)c2C)cc1 | -0.62 | -0.3
15 | Cc1ccc(C2CC(=O)N3CN(C(C)c4ccccc4)CSC3=C2C#N)cc1 (centres undefined) | 5* | 1.2
16 | O=C(c1ccncc1)N(c1ccc2oc(=O)sc2c1)S(=O)(=O)c1cccc2cccnc12 | -2.4 | -1.5
17 | Cn1c(C(=O)N2CCCC(C(=O)NC3CCCC3)C2)cc2sccc21 (centres undefined) | -0.28 | 0.83
18 | Cn1c(=O)n(Cc2ccc(F)cc2)c(=O)c2c1nc1n2CCN1Cc1ccccc1 | · | 3.7
19 | N#Cc1nc(-c2ccc(S(=O)(=O)N3CCc4ccccc4C3)cc2)oc1N1CCCCC1 | 0.86 | -0.83
20 | CCCCn1cc(S(=O)(=O)c2cccc(Cl)c2)c(=O)c2cc(F)c(N3CCN(C)CC3)cc21 | · | 1.2
21 | Cc1cc2c(s1)CCc1cc(C(=O)NC3CCCCC3)sc1-2 | · | 1.7
22 | COc1ccc(CN(C)Cc2cc(=O)c3cc(F)ccc3[nH]2)cc1OC | · | -1.2
23 | CN(C)CCNc1nc(Cc2ccccc2)nc2sc3c(c12)CCCC3 | 0.51 | ·
24 | CCOC(=O)c1nc(N(CC)c2ccccc2)c2ccccc2n1 | · | 1.1
25 | COc1cc(NC(=O)CCc2nnc3ccc(N4CCN(C)CC4)nn23)cc(OC)c1 | · | -0.88
26 | CCSCCNC(=O)c1nc(-n2cnnc2)ccc1Br | · | 2.6
27 | CCCN1C(SCC(=O)Nc2cc(C)[nH]n2)=NS(=O)(=O)c2ccccc21 | · | 1
28 | Clc1ccc(Nc2nc3ccccc3n3nnnc23)cc1 | 1 | 2.8
29 | CNC(=O)c1c(O)c2c([nH]c1=O)CCCC2 | · | 2.2
30 | O=c1oc(-c2ccccc2Cl)nc2c1cnn2-c1ccccc1 | -1.1 | 1.6

Reprinted from the part before: 6 compounds, followed by the next part.
cpd | structure | CDC25B CDK2 inh | TAR Tat displ
25 | COc1cc(NC(=O)CCc2nnc3ccc(N4CCN(C)CC4)nn23)cc(OC)c1 | · | -0.88
26 | CCSCCNC(=O)c1nc(-n2cnnc2)ccc1Br | · | 2.6
27 | CCCN1C(SCC(=O)Nc2cc(C)[nH]n2)=NS(=O)(=O)c2ccccc21 | · | 1
28 | Clc1ccc(Nc2nc3ccccc3n3nnnc23)cc1 | 1 | 2.8
29 | CNC(=O)c1c(O)c2c([nH]c1=O)CCCC2 | · | 2.2
30 | O=c1oc(-c2ccccc2Cl)nc2c1cnn2-c1ccccc1 | -1.1 | 1.6
31 | O=C(O)C1CCCN(C(=O)c2ccc(-n3ccc4ccccc43)s2)C1 (centres undefined) | -4.7 | 3.4
32 | Cc1nc(CNC(=O)[C@H]2CSCN2C(=O)Nc2ccccc2)cs1 | · | 0.58
33 | COc1cc(C2OC(c3cc(Cl)ccc3OC(C)=O)=NN2C(C)=O)ccc1OC(=O)c1ccco1 (centres undefined) | · | -0.29
34 | COc1cccc(-c2cn3nc(CC(C)C)sc3n2)c1 | -0.34 | 2.4
35 | COc1ccc(S(=O)(=O)NCCc2nnc3ccc(SCc4cc(C)ccc4C)nn23)cc1 | · | 1.9
36 | CCCCOc1ccc(/C=C2\SC(=S)N(CC(=O)OC)C2=O)cc1OC | -2.6 | ·
37 | CC1(C)CC2CC(C)(CN2C(=O)c2cc3n(n2)C(C(F)(F)F)CC(c2ccco2)N3)C1 (centres undefined) | -0.42 | ·
38 | COc1ccc(OC)c(S(=O)(=O)Nc2ccc3[nH]c(=O)[nH]c3c2)c1 | -2.9 | 1.5
39 | COc1cc(NS(=O)(=O)c2ccc(-c3n[nH]c(C)c3C)s2)cc(OC)c1 | · | 1.1
40 | CCn1nc(C)c(CCNC(=O)Nc2ccsc2C(=O)OC)c1C | · | -1.6
41 | CN1CCN(CCNC(=O)c2cnn3c4c(cnc23)CCCCCC4)CC1 | · | 2.3
42 | CSc1nnc2c(n1)OC(c1ccccc1)Nc1ccccc1-2 (centres undefined) | -1.7 | ·
43 | O=C(c1cc(C2CC2)on1)N1CCc2ccccc2C1 | -0.91 | 0.68
44 | COc1ccc(NC(=O)CCc2nc3sc4c(c3c(=O)[nH]2)CCCC4)cc1OC | · | 0.22
45 | O=C(Nc1ccncc1[N+](=O)[O-])c1cccs1 | -1.1 | 1.4
46 | COc1ccc(-c2coc3c(C)c4oc(=O)cc(-c5ccc(OC)cc5)c4cc23)cc1 | 1.4 | ·
47 | COC(=O)c1ccccc1NC(=S)Sc1ccc(Cl)cc1 | 0.24 | ·
48 | COC(=O)c1sccc1NC(=O)c1noc2c1CSc1ccccc1-2 | -0.28 | 1.6
49 | Cc1cc(Cl)ccc1Nc1nc(NCCO)nc2c1cnn2C | · | 1.1
50 | CC(CCc1ccccc1)NC(=O)c1cc2c(=O)n3ccccc3nc2n1C (centres undefined) | · | 2.4
51 | O=C(NC1CC1)c1ccc2c(c1)N(Cc1ccccc1)CCS2 | -0.49 | 2.1
52 | Cc1nc(N(C)C)cc(N2CCN(C(=O)Nc3ccc4c(c3)OCCO4)CC2)n1 | 0.24 | 0.08
53 | COc1ccc(Br)cc1CN1CCN(C2CCN(Cc3ccccc3)CC2)CC1 | -1.4 | 1.9
54 | CN(C)CCCN1c2ccccc2Sc2ccc(C(F)(F)F)cc21 | -1.4 | ·
55 | COc1ccc(NC(=O)C(C)C2SC(=O)NC2=O)cc1 (centres undefined) | -2 | -1.3
56 | COC(=O)C1C2C=CC3(CN(c4ccc(OC)cc4)C(=O)C13)O2 (centres undefined) | 0.35 | 0.66
57 | O=C1CN(Cc2ccc(Br)cc2)S(=O)(=O)c2ccccc2N1Cc1ccc(F)cc1 | · | 0.71
58 | CN(C)CCc1c[nH]c2ccc(C[C@H]3COC(=O)N3)cc12 | · | 1.9
59 | Cc1cc(C)c2oc(C(=O)Nc3nnc(CC(C)C)s3)cc(=O)c2c1 | 0.19 | 1.9
60 | CCOC(=O)c1c(C)oc2ccc(NS(=O)(=O)c3cc(Cl)ccc3Cl)cc12 | -0.34 | ·
61 | CC(=O)NC1(c2nnnn2CCOC(=O)Nc2ccc(Cl)cc2)CCCC1 | -0.8 | -0.14
62 | O=C(Cn1c(=O)n(Cc2ccco2)c(=O)c2cc(Cl)ccc21)NCC1CCCO1 (centres undefined) | -1.4 | ·
63 | COc1ccc(C2C3=C(CC(C)(C)CC3=O)Nc3cc(OC)c(OC)cc32)cc1Cl (centres undefined) | 0.69 | 0.65
64 | Cc1ccc(NC(=O)c2c(F)cccc2Cl)cc1NS(C)(=O)=O | -1.7 | ·
65 | O=C(CCCc1nnc2c(=O)n(-c3ccc(Cl)cc3)ccn12)N1CCN(c2ccc(F)cc2)CC1 | · | 1.4
66 | CC1CCN(C2=C(C(=O)N3CCOCC3)S(=O)(=O)c3ccccc32)CC1 | · | 0.14
67 | CCOC(=O)CN1C(=O)C(O)(CC(=O)c2cc(C)ccc2C)c2ccccc21 (centres undefined) | 0.74 | 1.4
68 | O=C(NC1CCCCC1)NC(c1ccccc1)c1nnc(-c2ccccc2Cl)o1 (centres undefined) | 0.2 | -1.4
69 | O=C(Nc1nc(-c2nc3ccccc3s2)cs1)c1ccco1 | · | -0.03
70 | NC(=O)C1CCN(C(=O)CSc2ccccn2)CC1 | -1.1 | ·
71 | CC1(C)C(=O)Nc2ccc(S(=O)(=O)Nc3ccccc3)cc21 | · | -2
72 | CCCc1sc(C)nc1-c1nnc(N)o1 | -2.2 | -0.29
73 | Cc1cccc(-c2nc(Cn3c(C)nc4onc(C)c4c3=O)c(C)o2)c1 | · | 1.2
74 | CC(C)CCn1c(=S)[nH]c2ccc(F)cc2c1=O | -2.5 | ·
75 | CCCn1nnc2cc(S(=O)(=O)N3CCC(C(=O)O)CC3)ccc21 | -0.04 | 0.22
76 | COc1cc(OC)cc(-c2nc3n(n2)C(c2ccccc2)C2=C(CC(C)(C)CC2=O)N3)c1 (centres undefined) | -0.46 | 0.09
77 | O=C(C1CC1)N1CCc2cc(Br)cc(S(=O)(=O)NCCCN3CCCC3)c21 | 0.31 | ·
78 | Cc1ccc(-c2csc3c2ncn2c(=O)n(CC(=O)Nc4ccc(C(C)C)cc4)nc32)cc1 | · | -1
79 | Cn1c(=O)c2c(nc(NCc3ccc4c(c3)OCO4)n2Cc2ccccc2Cl)n(C)c1=O | -0.37 | ·
80 | C=CCNc1nc(-c2sc(NC(C)=O)nc2C)cs1 | -0.6 | ·
81 | CC(=O)N1c2c(cc(Br)cc2S(=O)(=O)N2CCC3(CC2)OCCO3)CC1C (centres undefined) | -0.16 | ·
82 | CCOCCCNC(=O)c1c(NC(=O)c2cc(=O)c3ccccc3o2)sc2c1CCC2 | -1.3 | -1.7
83 | O=S1(=O)N=CNc2ccc(S(=O)(=O)Nc3cccc(Cl)c3)cc21 | · | 0.35
84 | COc1ccc(OC)c(CNC(c2ccc(F)cc2)c2nnc(-c3ccccc3)o2)c1 (centres undefined) | -0.63 | 1.5
85 | Cc1nc(-c2cccc(F)c2)sc1CCNS(=O)(=O)c1ccccc1F | · | 0.11
86 | Cc1c(C(=O)N2CCCC2)c(S(=O)(=O)NCc2ccc3c(c2)OCO3)c(C)n1C | · | 1.4
87 | Clc1ccc(-c2ncnn2-c2ccccc2Cl)cc1 | -0.42 | 1.2
88 | Cc1ccc(S(=O)(=O)c2nc(-c3cccs3)oc2S(=O)(=O)CC(C)C)cc1 | -4.6 | -0.27
89 | CC12CNCC(C)(CN(C(c3ccccc3)c3ccccc3)C1)C2 | 0.2 | ·
90 | COc1ccc(N2CCN(S(=O)(=O)c3c(C)nc4scc(C)n4c3=O)CC2)cc1 | -2.2 | -0.35

Next section.
cpd | structure | CDC25B CDK2 inh | TAR Tat displ
91 | CC1=C(c2ccc(F)cc2)S(=O)(=O)N=C1N1CCc2ccccc21 | · | -1.4
92 | O=C(COc1ccc(S(=O)(=O)Nc2ccccc2)cc1Cl)c1ccccc1 | -2.1 | ·
93 | CCCCN(C)CCCNC(=O)Cn1c(=O)sc2ccccc21 | 0.43 | ·
94 | COc1cc2c3cc1Oc1cc(ccc1O)O[C@H]1c4c(cc(OC)c(O)c4Oc4ccc(cc4)C[C@@H]3N(C)CC2)CCN1C | · | 0.83
95 | CC(=O)Nc1ccc(S(=O)(=O)[C@H]2CS(=O)(=O)C[C@@H]2N2CCN(c3ncccn3)CC2)cc1 | -2.3 | 0.45
96 | Cc1cccc(OCCn2c(C(O)c3ccccc3)nc3ccccc32)c1 (centres undefined) | -1.2 | 0.64
97 | NC(=O)C1CCN(c2c(S(=O)(=O)c3ccccc3)cnc3ccc(F)cc23)CC1 | -1.3 | -0.38
98 | CCc1ccc(NC(=O)c2cnc3scc(C)n3c2=O)cc1 | -0.87 | ·
99 | CCOc1ccc(/C=C/c2nc(C#N)c(NCCCN(C)C)o2)cc1 | -0.2 | -0.45
100 | COc1cccc(NC(=O)CSc2nc(-c3ccco3)nc3cc(=O)[nH]n23)c1 | · | 1.4
101 | Cc1ccc(-c2nnc3sc(/C=C/c4ccco4)nn23)cc1 | 14* | 20*
102 | CCN1CCN(CCCNC(=O)Nc2c[nH]c3ccc(C)cc3c2=O)CC1 | -0.7 | -0.71
103 | CCCCn1c2ccccc2c2nc3ccccc3nc21 | 20* | -2.2
104 | CC(=O)Nc1ccc(S(=O)(=O)Nc2cccc3c(=O)[nH][nH]c(=O)c23)cc1 | -0.96 | ·
105 | Cc1ccc(N2C(=O)C3NN=C(C(=O)OCc4ccccc4)C3C2=O)cc1 (centres undefined) | -0.33 | -0.17
106 | COc1cccc(C2CC(=O)N3CN(c4ccc(OC)c(OC)c4)CSC3=C2C#N)c1 (centres undefined) | 7.5* | -1.8
107 | Cc1ccc2c(c1)c1c(n2CC(O)Cn2c(C)cc(C)nc2=O)C(=O)CCC1 (centres undefined) | -2 | ·
108 | O=c1c2ccccc2nc(SCc2cc(F)ccc2F)n1CC1CCCO1 (centres undefined) | -1.6 | ·
109 | COC(=O)c1c(C)nn(C(=O)c2ccc(C)cc2)c1-c1cc(C)on1 | -1.3 | ·
110 | CCC(C(=O)Nc1cc(-c2cccc(Cl)c2)no1)n1c2ccccc2c2nc(=O)cc(C)n21 (centres undefined) | -0.9 | ·
